Cruzain inh Det: cruzain (T. cruzi) inhibition with detergent; 200,000 tested, 0.43% active; P25779; purified cruzain, Z-FR-AMC fluorescence, 0.01% Triton; Potency, µM, for the others: max response, negative = inhibition, most hits filed as inhibitors;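 note: plate controls were neutral wells for no effect and buffer without enzyme for full effect; nearly all actives have a fitted effect of over 40% in size; top concentration of the series not given in the record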
Target sequence (P25779 123-467 limits assumed): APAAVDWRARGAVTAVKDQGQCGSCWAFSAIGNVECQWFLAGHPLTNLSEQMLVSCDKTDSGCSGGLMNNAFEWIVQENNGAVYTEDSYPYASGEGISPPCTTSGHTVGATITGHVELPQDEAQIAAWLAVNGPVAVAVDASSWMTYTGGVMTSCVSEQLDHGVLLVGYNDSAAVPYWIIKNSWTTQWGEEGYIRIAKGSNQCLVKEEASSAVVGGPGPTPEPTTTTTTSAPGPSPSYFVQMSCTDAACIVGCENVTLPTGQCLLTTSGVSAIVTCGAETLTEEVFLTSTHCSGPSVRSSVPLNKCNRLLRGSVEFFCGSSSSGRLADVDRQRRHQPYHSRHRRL
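In this qHTS format, compounds are incubated with 1.5 nM cruzain for 15 min at room temperature before 2 uM Z-FR-AMC is added. Release of AMC is followed at 360/450 nm, and progress is taken as the 60 s fluorescence difference.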
Cruzain noTriton: cruzain (T. cruzi) inhibition without detergent; 200,000 tested, 2.3% active; purified cruzain, Z-FR-AMC fluorescence, no detergent; AID 1476; Potency, µM, for the others: max response, negative = inhibition, actives largely listed as inhibitors; P25779;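 note: plate controls were enzyme without inhibitor for no effect and buffer without enzyme for full effect; nearly all actives have a fitted effect of over 40% in size; top concentration of the series not given in the record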
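Purified cruzain at 1.5 nM, pre-incubated 15 min with compound at room temperature in 100 mM sodium acetate pH 5.5, 5 mM DTT, 0.00005% Triton X-100. Reaction started with 2 uM Z-FR-AMC; AMC fluorescence increase over 60 s gives rate.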
SARS PLpro yeast: blocks SARS-CoV papain-like protease in a yeast assay. S. cerevisiae expressing SARS-CoV PLpro, growth rescue; control for the full effect not named in the record. Potency, µM (top dose mostly 32.9 µM), inactives show top-dose activity, positive = growth rescue. 330,000 tested, 0.19% active; active means well fitted rising curve with a large enough effect; inconclusive means small, poorly fitted or top-dose-only effect; inactive means no such curve, though single readings can be large or run the other way; note: 0% is about no effect; nearly all actives have a fitted effect of over 55% in size; growth read by luminescence after 48 h
RE007 growth inh: less growth of the S. pombe RE007 Vpr strain | AID 651644 | 360,000 tested, 0.21% active | S. pombe RE007 Vpr strain, BacTiter-Glo ATP luminescence, 24 h; control for the full effect not named in the record | Potency, µM (highest dose often 92.2 µM), for inactives: at the highest dose activity change, negative = less growth; active = well fitted falling curve with a large enough effect; inconclusive = small, poorly fitted or top-dose-only effect; inactive = no such curve, though single readings can be large or run the other way;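 note: % is set by controls: 0 for no effect and ±100 for the full control effect; nearly all actives have a fitted effect of over 50% in size; the assay follows cell death caused by Vpr and the record does not say whether a fall means rescue or toxicity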
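Fission yeast RE007 carrying one integrated HIV-1 vpr copy, seeded at OD 0.01 in PMG+AL medium with 23 nL pinned compound. Grown 24 h at 30 degrees; viability read by BacTiter-Glo luminescence after 5 min.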
NS1 function inh: blocks influenza NS1 protein function | S. cerevisiae slowed by influenza A NS1, growth recovery by OD600 | Potency, µM (titrated, usually from 46.1 µM), for the others: at the top dose activity, positive = more growth | 270,000 tested, 0.4% active | AID 2326; active means well fitted rising curve with a large enough effect; inconclusive means small, poorly fitted or top-dose-only effect; inactive means no such curve, though single readings can be large or run the other way; note: nearly all actives have a fitted effect of over 50% in size
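Growth recovery, yeast-based: influenza A NS1 expressed in S. cerevisiae causes slow growth, and suppressors are detected by OD600. The parent strain without NS1 is used as positive control.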
Lassa entry inh: Lassa virus entry inhibition | Lassa virus pseudotype entry inhibition, cell reporter; control for the full effect not named in the record | Potency, µM (highest dose often 37.9 µM), for the others: at the top dose activity change, negative = inhibition, hits mostly inhibitors | AID 540256 | 300,000 tested, 1.2% active; active means well fitted inhibition curve with a large enough effect; inconclusive means small, poorly fitted or top-dose-only effect, or effect the other way; inactive means flat fitted curve, though single readings scatter; tested in HEK293 cells; note: % is set by controls: 0 for no effect and ±100 for the full control effect; nearly all actives have a fitted effect of over 50% in size; luciferase read-out
Marburg entry inh: inhibitors of Marburg virus binding or cell entry; Marburg virus pseudotyped entry inhibition, cell reporter; control for the full effect not named in the record; about a third of the inactives were read at about 46 µM; Potency, µM (top dose mostly 37.8 µM), for inactives: at the highest dose activity change, negative = inhibition, actives largely listed as inhibitors; 300,000 tested, 1.8% active; AID 540276; active = well fitted inhibition curve with a large enough effect; inconclusive = small, poorly fitted or top-dose-only effect, or effect the other way; inactive = flat fitted curve, though single readings scatter; tested in HEK293 cells; about a fifth of its hits are not listed in these tables; note: % is set by controls: 0 for no effect and ±100 for the full control effect; luciferase read-out
2A StopGo: FMDV 2A StopGo reporter, luciferase signal; 410,000 tested, 1.2% active; Potency, µM (series often up to 57.9 µM), without a hit: at the highest dose signal change, negative = less light; human cells with a luciferase reporter of 2A StopGo recoding; control for the full effect not named in the record; AID 1159524; active = well fitted falling curve with a large enough effect; inconclusive = small, poorly fitted or top-dose-only effect; inactive = no such curve, though single readings can be large or run the other way; tested in HEK293T cells; note: % is set by controls: 0 for no effect and ±100 for the full control effect; nearly all actives have a fitted effect of over 45% in size; luciferase light after 4 h
An asterisk follows results filed as active; ? = inconclusive; . = no result given; & = joins results of further samples; [ ] = another dose, or the depositor's remark. Unless noted, calls come from the whole dose curve; as a rule, active = well fitted curve in the direction sought with a large enough effect; inconclusive = small, poorly fitted or top-dose-only effect, or another doubt; inactive = no such curve, though single readings can be large; an effect the other way counts as inactive or inconclusive. Potency is the fitted concentration of half-maximal effect. Rows are unselected; 4.6% or so of the library scored in one or more.

The line under a structure holds: Cruzain inh Det	Cruzain noTriton	SARS PLpro yeast	RE007 growth inh	NS1 function inh	Lassa entry inh	Marburg entry inh	2A StopGo
CCCc1cc(=O)n2[nH]c(NCc3cccs3)nc2n1
  0.1%	5%	8%	-9%	2%	?	-1%	2%
C=CCn1c(CCC(=O)Nc2ccc(C)c(Cl)c2)nnc1SCC(=O)Nc1ccccc1C
  -7.0%	?	9%	13%	-9%	?	-16%	.
O=[N+]([O-])c1ccc2cn[nH]c2c1
  -3.7%&-2.7%	-7%&3%	1%	2%	3%	-13%	-6%&-6%&-6%	-21%&-19%
Cc1c(NC(=O)CN2c3cccc4cccc(c34)S2(=O)=O)c(=O)n(-c2ccccc2)n1C
  0.8%	2%	1%	-3%	-6%	9%	0%&0%	-2%
CCC(C)NC(=O)CCCc1nnc2n(CC(C)C)c(=O)c3sccc3n12 (stereo not drawn)
  -0.2%	8%	.	.	.	19%[46.1 µM]	.	-3%
CCn1cc(C(=O)N2CCN(c3ccccc3)CC2)c(=O)c2cc(S(=O)(=O)N(C)C3CCCCC3)ccc21
  -1.8%	-4%	.	.	.	16%[46.1 µM]	6%[46.1 µM]	8%
COC(=O)c1scc(-c2ccc(C)cc2)c1S(=O)(=O)Nc1cccc(C(F)(F)F)c1
  -18%	-4%	.	.	.	-12%[46.1 µM]	.	-6%
CC(=O)CC(=O)Nc1ccc(C(N)=O)cc1
  .	.	-1%	11%	3%	13%	?	-11%
CN1C(=O)/C(=N/OC(=O)c2ccccc2Br)c2ccccc21
  .	.	-9%	-18%	.	15%	?	-25%
Cc1ccc(C(=O)NC(=S)Nc2ccccc2C(F)(F)F)cc1C
  -4.6%	-3%	-16%	-17%	-32%	-27%	-5%	-3%

Nine entries from above, as tab-separated lines.
mol	Cruzain inh Det	Cruzain noTriton	SARS PLpro yeast	RE007 growth inh	NS1 function inh	Lassa entry inh	Marburg entry inh	2A StopGo
CCCc1cc(=O)n2[nH]c(NCc3cccs3)nc2n1	0.1%	5%	8%	-9%	2%	?	-1%	2%
C=CCn1c(CCC(=O)Nc2ccc(C)c(Cl)c2)nnc1SCC(=O)Nc1ccccc1C	-7.0%	?	9%	13%	-9%	?	-16%	.
O=[N+]([O-])c1ccc2cn[nH]c2c1	-3.7%&-2.7%	-7%&3%	1%	2%	3%	-13%	-6%&-6%&-6%	-21%&-19%
Cc1c(NC(=O)CN2c3cccc4cccc(c34)S2(=O)=O)c(=O)n(-c2ccccc2)n1C	0.8%	2%	1%	-3%	-6%	9%	0%&0%	-2%
CCC(C)NC(=O)CCCc1nnc2n(CC(C)C)c(=O)c3sccc3n12 (stereo not drawn)	-0.2%	8%	.	.	.	19%[46.1 µM]	.	-3%
CCn1cc(C(=O)N2CCN(c3ccccc3)CC2)c(=O)c2cc(S(=O)(=O)N(C)C3CCCCC3)ccc21	-1.8%	-4%	.	.	.	16%[46.1 µM]	6%[46.1 µM]	8%
COC(=O)c1scc(-c2ccc(C)cc2)c1S(=O)(=O)Nc1cccc(C(F)(F)F)c1	-18%	-4%	.	.	.	-12%[46.1 µM]	.	-6%
CC(=O)CC(=O)Nc1ccc(C(N)=O)cc1	.	.	-1%	11%	3%	13%	?	-11%
CN1C(=O)/C(=N/OC(=O)c2ccccc2Br)c2ccccc21	.	.	-9%	-18%	.	15%	?	-25%

The list goes on.
The line under a structure holds: Cruzain inh Det	Cruzain noTriton	SARS PLpro yeast	RE007 growth inh	NS1 function inh	Lassa entry inh	Marburg entry inh	2A StopGo
COc1ccc(-n2c(CCc3ccccc3)nnc2SCC(=O)NCc2ccccc2)cc1
  6.4%	11%	15%	23%	0%	?	?	4%
C[C@H](NC(=O)NCc1ccc(F)cc1)C(=O)O
  -3.0%	-10%	-11%	-6%	8%	22%	7%	-5%
C=CCN1C(=O)C(Cc2ccccc2Cl)SC1=Nc1ccc(C(=O)O)cc1 (stereo not drawn)
  .	.	-1%	14%	-2%	.	.	-19%
COc1ccccc1CNC(=O)N/C=C/c1ccc(Cl)cc1
  .	.	3%	-4%	.	?	?	0%
CN(c1cccc(NC(=O)c2ccc(C(C)(C)C)cc2)c1)S(C)(=O)=O
  .	.	-1%	-1%	1%	?	?	?
Cc1ccc(C2C=C(c3ccc(Cl)cc3)Nc3nc(NS(=O)(=O)c4ccccc4)nn32)cc1 (stereo not drawn)
  -13%	19%	.	.	.	-5%[46.1 µM]	27%[46.1 µM]	-24%
CC(C)(O)C#Cc1ccc(C(=O)NCc2ccccc2)s1
  .	.	.	17%	.	1%	3%	0%
CCOc1ccc(C(=O)NC2CC(C)(C)NC(C)(C)C2)cc1
  .	.	-5%	4%	1%	.	.	-3%
Cc1cc(C(=O)Nc2c(C)n(C)n(-c3ccccc3)c2=O)c2ccccc2n1
  4.8%	-2%	-9%	1%	-3%	-5%	12%	-12%
COc1ccc(OCC(=O)NNC(=O)c2cccs2)cc1
  10%	-8%	0%	19%	-2%	-10%	4%[46.1 µM]	7%
CCC(CC)n1[nH]c(=O)cc1N
  0.8%	-5%	19%	1%	10%	-10%	-11%	0%
Cn1cc(CN2CCCC(C(=O)Nc3ccc(-c4cccc(F)c4)cc3)C2)cn1 (stereo not drawn)
  .	.	-1%	-10%	-2%	.	.	?
COc1ccc(-n2nc3cc(C)c(NC(C)=O)cc3n2)cc1
  .	.	0%	-2%	0%	?	?	-54%
CC(C)C(=O)NC(c1ccccc1)c1cc([N+](=O)[O-])c2cccnc2c1O (stereo not drawn)
  0.1%	-19%	?	?	4%	?	?	0%
CN(c1ccc(OCC(=O)O)cc1)S(=O)(=O)c1ccc2ccccc2c1
  .	.	0%	8%	3%	.	.	-3%
Cc1cc(=O)n2cccc(O)c2n1
  .	.	1%	20%	4%	15%	27%[46.1 µM]	-23%
CC(=O)ON1C(C)(C)Cc2noc(N)c2C1(C)C
  -0.8%	-6%	7%	6%	7%	-1%	2%	3%
CCOc1ccc(-n2cc(-c3ccccc3)c3c(NCc4ccc(F)cc4)ncnc32)cc1
  -0.1%	-6%	.	.	.	15%[46.1 µM]	.	-20%
COc1ccc(OC)c(NC(=O)C2Cc3ccccc3CN2S(=O)(=O)c2ccc(F)cc2)c1 (stereo not drawn)
  -3.3%	?	.	.	.	?	?	-7%
CCCCNc1nc(N)ncc1[N+](=O)[O-]
  .	.	-1%	-1%	-6%	.	.	-16%
O=C(Nc1ccccc1Cl)C1CCCN(S(=O)(=O)c2ccc(-n3cnnn3)cc2)C1 (stereo not drawn)
  .	.	1%	55%	13%	-19%[46.1 µM]	4%[46.1 µM]	-21%
Cc1c(C(=O)N2CCOCC2)c(S(=O)(=O)Nc2ccccc2)c(C)n1C
  .	.	-7%	-13%	-4%	.	.	15%
CC1CCN(C(=O)COc2ccccc2F)CC1
  2.2%	10%	-5%	4%	-7%	-1%	0%	34%[activator]
COc1ccc(C)cc1Cn1c(S(C)(=O)=O)nc2ccccc21
  -5.3%	-14%	5%	14%	-10%	21%	-17%	.
O=C(c1ccc(S(=O)(=O)Nc2ccc(F)cc2)cc1)N1CCN(C(=O)c2ccco2)CC1
  2.6%	14%	15%	21%	-12%	-25%	?	0%
Cc1ccccc1C(=O)Nc1ccccc1Sc1ccccc1
  -6.9%	3%	-23%	-25%	-13%	-21%	?	-20%
CN(C)c1ccsc1C(=O)NNS(=O)(=O)c1ccc(Cl)cc1
  .	.	.	7%	.	?	-17%	24%
COc1ccc(CCN2CCCC(CN(C)C(=O)c3cc(C)oc3C)C2)cc1 (stereo not drawn)
  .	.	-1%	4%	-11%	-6%[46.1 µM]	?	-19%
CC(C)(C)c1ccc(C(=O)NCC(=O)OCC(=O)Nc2ccccc2[N+](=O)[O-])cc1
  -5.7%	5%	-4%	-15%	-34%	-1%	8%	-20%
COc1cc(/C=C(\C#N)C(=O)NCC2CCCO2)ccc1OCC(N)=O (stereo not drawn)
  .	.	1%	-20%	4%	?	12%[46.1 µM]	-5%
CCN(CC)CCCNC(=O)CSc1nc(-c2ccc(OC)cc2)cc(C(F)(F)F)n1
  -21%	?	.	.	.	-2%[46.1 µM]	.	0%
COc1ccc(/C=C/C(=O)N(CC(C)C)C2CCS(=O)(=O)C2)cc1 (stereo not drawn)
  .	.	-4%	-17%	.	-24%	6%[46.1 µM]	14%
Nc1nc(SCC(=O)Nc2ccc(C(F)(F)F)cc2)[nH]c(=O)c1NC(=O)c1ccc(F)c(F)c1
  .	.	-1%	-6%	11%	22%	-1%	-4%
CS(=O)(=O)N1Cc2ccccc2CC1C(=O)OCC(=O)Nc1ccc2ccccc2c1 (stereo not drawn)
  -13%	-19%	-1%	10%	17%	-6%	0%	-9%
COc1ccccc1C(=O)Nc1ccc(-c2nc3ccccc3s2)c(C)c1
  -1.8%	13%	.	.	.	?	.	15%
CCc1cccc(C)c1NC(=S)N1CCCCC1c1cccnc1 (stereo not drawn)
  .	.	0%	2%	-1%	.	.	-12%
CC(C)CN(CCNC(=O)CCN1N=C(c2ccccc2)CCC1=O)CC(C)C
  0.2%	-8%	.	.	.	?	.	-6%
COc1cccc(C2C(C#N)=C(N)N(c3ncn[nH]3)C3=C2C(=O)CCC3)c1 (stereo not drawn)
  0.4%	7%	15%	11%	-5%	9%	0%	-24%
Nc1nc(SCC(=O)N2CCCc3ccccc32)[nH]c(=O)c1-c1ccccc1
  -2.4%	-17%	3%	10%	-5%	-3%	-1%	.
Fc1ccc(C2NCCc3[nH]cnc32)cc1 (stereo not drawn)
  -1.8%	-10%	6%	-10%	-3%	?	2%	-16%
CCn1ncc(Br)c1C(=O)Nc1sc2c(c1C(=O)OC)CCC2
  .	.	.	-6%	-2%	-1%	0%	.

Screens: PubChem BioAssay, National Center for Advancing Translational Sciences (NCATS)
